Source: PubChem BioAssay (several laboratories)
Mtb hypoxia inh = PubChem AID 1159583; M. tuberculosis hypoxia-regulated fluorescent reporter, fluorescence; 300,000 tested, 0.1% active; fluorescence inhibition, % (no concentration beside the values);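 active = 35 to 45% if threefold the growth effect, above 45% if 1.5-fold the growth effect; inactive = the rest, general growth blockers included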;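 also: wells of about 50 µL received 100 nL stock; 0% = vehicle wells and 100% = reference inhibitor wells; whole bacteria with a GFP reporter of the hypoxia response; strong numbers were not always called active; many hits fall short of the cut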
BJeLR viability = MLPCN primary cell-based screen for lethality selective to Ras in HRASV12 cells. BJeLR (HRASV12) viability, CellTiter-Glo ATP luminescence, 48 h; reference of the scale not given here. inhibition, % (test concentration not listed). 300,000 tested, 0.17% active. AID 1554, 2009;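 active = replicate mean above 50%; inconclusive = above 50% but judged a plate artefact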;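 also: 50 nL library stock added to about 25 µL; numbers are from one replicate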
PrP UTR inh = inhibition of PrP 5' UTR reporter expression | cell-based PrP 5' UTR mRNA reporter, plate reader | inhibition, % (test concentration not listed) | 340,000 tested, 0.35% active | AID 488862, 2010;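 active = every replicate at 50% or more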;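 also: 0 = median of the neutral control wells; tested in H4 reporter cells; numbers are from one replicate; inactives centre near -14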
Sa ugtP lethal = growth inhibition of ugtP-null S. aureus, primary screen, RN4220 ugtP deletion, OD600; 16 h; some inactives read as strong as hits; growth inhibition, % (no concentration beside the values); 330,000 tested, 0.54% active; AID 1259309, 2017;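 active = z-score under -3 and OD600 up to 0.15 on both plates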;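 also: plate controls were untreated wells for no effect and antibiotic for full effect; wells of about 80 µL received 100 nL stock; the first replicate is given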
Sa RN4220 lethal = growth inhibition of S. aureus RN4220, primary screen, OD600 | 16 h | inhibition, % (concentration not given with the values) | 330,000 tested, 0.33% active;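 active = z-score of -3 or lower and OD600 up to 0.18 on both plates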;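 also: plate controls were untreated cells for no effect and reference antibiotic for full effect; stock transfer was 100 nL into about 80 µL; one replicate is shown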
Bead autofluor = compound fluorescence in toxin protease inhibitor counterscreen | compound autofluorescence counterscreen, microsphere flow cytometry; hits give high values | fluorescence intensity (no concentration beside the values) | 360,000 tested, 3.1% active | AID 624483;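 active = at least 3 SD above the mean of all compounds, about 16000 in these data; inconclusive = too few beads counted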;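 also: 100 nL of 1 mM stock went into each well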
Mtb hypoxia inh growth = recorded beside Mtb hypoxia inh, whose call it bears; growth inhibition, %; measured here: M. tuberculosis growth (absorbance);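 0% = vehicle and 100% = reference antibiotic; read after six days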
The depositor's hits bear a star; ? = inconclusive; nt = not tested or not shown. An unsorted share of the library; 4% or so of the library scored in one or more.

SMILES | Mtb hypoxia inh | Mtb hypoxia inh growth | BJeLR viability | PrP UTR inh | Sa ugtP lethal | Sa RN4220 lethal | Bead autofluor
CCOC(=O)c1c(NC(=O)c2ccccc2Cl)sc2c1CCc1ccccc1-2 | -3 | 2 | 1 | -7 | 69 | -4.9 | 1945
N#Cc1ccc(OCc2nnc(-c3ccc([N+](=O)[O-])cc3)o2)cc1 | 5 | 9 | -2 | -18 | -5 | 18 | 4113
CCOC(=O)N1CCN(CC(O)COc2ccccc2C(C)(C)C)CC1 (stereo not given) | 11 | 11 | -14 | -39 | -2 | 7.8 | 2100
CN(Cc1nc2ccccc2c(=O)[nH]1)C(=O)c1cccc(NC(=O)c2cccs2)c1 | 11 | 4 | nt | -19 | 5 | 2.8 | 3920
CN(Cc1nc(-c2cccc(Cl)c2)no1)C1CCOCC1 | 5 | 5 | 6 | -57 | 10 | 3.6 | 5081
O=C(O)CC(Cc1ccc(Cl)cc1)C(=O)NCC12CC3CC(CC(C3)C1)C2 (stereo not given) | 4 | -1 | 2 | -23 | -2 | 17 | 3681
CCOc1ccc(NC(=S)NC(=O)/C=C/c2ccco2)cc1 | nt | nt | -5 | -33 | 73 | -1.1 | 3013
O=C(O)CCc1nn2c3ccccc3n(CC(=O)O)c2nc1=O | -3 | -11 | -7 | -5 | 11 | 4.6 | 4011
Cc1ccc(Cl)cc1NC(=O)COC(=O)c1ccc(CN2CCCC2=O)cc1 | -3 | -1 | nt | -11 | 2 | 1.8 | 3756
NC(=O)CSc1nnc(-c2ccncc2)o1 | 16 | 3 | -2 | -11 | 1 | 4.9 | 2154
COC(=O)c1cc(=O)c2c([N+](=O)[O-])ccc(OC)c2o1 | 5 | 4 | 0 | -7 | -3 | 3.7 | 8965
COc1ccc(Cc2c(O)nc[nH]c2=O)cc1 | 5 | -1 | 15 | -2 | 9 | 3.1 | 16832*
Cc1ccc(C(=O)NC2CCCc3c2cnn3-c2ccc(F)cc2F)cn1 (stereo not given) | nt | nt | 5 | 6 | nt | nt | 4935
CCN(c1ccc(OC)cc1)S(=O)(=O)c1ccc2c(c1)NC(=O)CS2 | -1 | 2 | 8 | -40 | -14 | -2.5 | 5044
COCCN(Cc1ccccc1)C(=O)c1c(C)nn(-c2ccccc2)c1C | 7 | 4 | 5 | -14 | 1 | -0.3 | 3925
C[C@H]1C(=O)N(C)CCN1C(=O)c1ccccc1OC1CCN(S(C)(=O)=O)CC1 | 0 | -6 | 7 | -19 | 5 | 8.2 | 3891
CCCCCCCC(=O)OCC(=O)[C@@]1(O)CC[C@H]2[C@@H]3CCC4=CC(=O)CC[C@]4(C)[C@H]3[C@@H](O)C[C@@]21C | nt | nt | -3 | -7 | nt | nt | 6077
Cc1cc(C(=O)OCC(=O)N2C(C)CCCC2C)c(C)o1 (stereo not given) | nt | nt | -4 | -18 | 8 | -8.9 | 2594
CCOc1ccccc1CNC(=O)CCCc1cn(C)c2ccccc12 | 4 | 5 | 10 | -36 | 4 | 9.0 | 5547
COc1ccccc1CNC(=O)/C(C#N)=C/c1ccc(OC)c(OC)c1OC | 6 | 5 | -3 | -11 | 13 | 4.7 | 4231
Cc1ccccc1N1C(=O)C2C3C=CC(C2C1=O)N(C)C3=O (stereo not given) | 5 | 7 | -3 | -12 | 2 | 4.3 | 3719
Cc1ccc(Cn2cnc3sc4c(c3c2=O)CCC4)c(C)c1 | 8 | 7 | -8 | -10 | 23 | -5.4 | ?
CC1C(=O)N(Cc2ccc([N+](=O)[O-])cc2)c2ccccc2N1C(=O)c1c(F)cccc1F (stereo not given) | 6 | 2 | 12 | -12 | -11 | -2.1 | 3832
Cc1cccc(C(=O)NC(=S)N(C)C2CCCCC2)c1 | -4 | 7 | -1 | -34 | 3 | -0.7 | 5546
CCCCCCC(=O)N1CCCC(c2nc(-c3cccc(OC)c3)no2)C1 (stereo not given) | -1 | 9 | 4 | -13 | 7 | 8.8 | 3306
NS(=O)(=O)c1cccc(NC(=O)COC(=O)CCCc2c[nH]c3ccccc23)c1 | 7 | 9 | 1 | -8 | 0 | 11 | 3735
Cc1ccc(NC(=O)C2CCCN(C(=O)c3ccc(Cl)cc3)C2)cc1C (stereo not given) | 17 | 4 | 0 | -64 | -6 | 9.0 | 3611
FC(F)(F)c1ccc(CN2C[C@@H]3C(c4ccccc4)C4(c5cccnc5)CC3(C4)[C@H]2c2ccccc2)cc1 (stereo not given in full) | nt | nt | 9 | -13 | nt | nt | 4239
O=c1cc(-c2ccc(O)c(-c3c(O)cc(O)c4c(=O)cc(-c5ccc(O)cc5)oc34)c2)oc2cc(O)cc(O)c12 | 19 | 5 | -1 | -11 | 26 | 20 | 3390
CCOC(=O)N1CCN(C(=O)c2ccc(N(Cc3ccccc3Cl)S(C)(=O)=O)cc2)CC1 | 6 | 12 | -10 | -17 | 4 | 1.5 | 3262
Cc1cccc(C=NNC(=O)Cc2ccc(Cl)cc2)c1O | 6 | 2 | nt | nt | -5 | -5.6 | nt
O=C(O)Cc1sc(-c2ccc(C(=O)O)cc2)nc1-c1ccccc1 | 1 | 2 | 3 | -19 | 3 | 3.9 | 3664
CN(Cc1nc2ccccc2c(=O)[nH]1)C(=O)COc1ccccc1Cc1ccccc1 | -9 | 2 | nt | -8 | -9 | -9.2 | 3487
Cc1cccc(C(=O)NCCC(=O)NCc2ccccc2Cl)c1 | 11 | 25 | nt | -9 | 3 | 0.5 | ?
CCOc1ccc(S(=O)(=O)N2CCOCC2)cc1NC(=O)CN1C(=O)NC2(CCCC2)C1=O | -4 | -4 | 5 | -5 | 3 | 1.0 | 6082
Cc1cc2c(cc1C)C(c1ccccc1F)CC(=O)N2 (stereo not given) | 5 | 2 | -2 | -9 | 3 | 3.8 | 3329
O=C(c1cc(COc2ccc3ncccc3c2)on1)N1CCC[C@H]1CO | 13 | 1 | 9 | -29 | 3 | 4.0 | 5564
COCCO[C@H]1CC[C@@]2(C)C(=CCC3C2CC[C@@]2(C)C3CC[C@]2(C)O)C1 (stereo not given in full) | -3 | 6 | nt | -10 | 16 | -5.8 | 4001
COc1nc(SCC(=O)Nc2ccccc2Cl)nc(N(C)C)n1 | 7 | 8 | -1 | -14 | 3 | 9.1 | 3612
N[C@@H](Cc1ccccc1)c1nnc(SC/C=C/c2ccccc2)o1 | 17 | 6 | -6 | -19 | 6 | 4.4 | 3139
CN1C(=O)c2ccccc2N(C)C1c1cccs1 (stereo not given) | nt | nt | 2 | 12 | 3 | 5.4 | 3556
O=C(CSCc1ccc(Cl)cc1)NN=Cc1ccco1 | -3 | -9 | nt | nt | -14 | -7.1 | nt
CCc1ccc(NC(=O)c2ccc(-n3cncn3)c([N+](=O)[O-])c2)cc1 | -2 | 1 | -6 | -6 | 3 | 0.9 | 6230
COc1ccc(-c2cc(-c3cc(OC)ccc3O)[nH]n2)cc1 | -66 | -8 | -10 | -56 | 1 | 1.0 | 4418
Cc1ccc(C=NNC(=O)Cc2cccs2)o1 | 4 | 7 | nt | nt | 1 | 4.3 | nt
COc1ccc(N2CCN(C(=O)NCc3ccc(OC)c(OC)c3)CC2)cc1 | 13 | 1 | -9 | -10 | 15 | 3.4 | 4354
COc1cc(C(C(=O)NC(C)(C)C)N(Cc2ccc3c(c2)OCO3)C(=O)c2cnccn2)cc(OC)c1OC (stereo not given) | -6 | 7 | -1 | -16 | 0 | -2.0 | 10271
O=C(c1ccco1)c1cn[nH]c1-c1ccc(Cl)cc1O | 11 | 11 | 15 | 5 | 2 | 4.2 | 2604
CCOC(=O)N1CCN(Cc2cn[nH]c2-c2cc3ccccc3o2)CC1 | 8 | 13 | 5 | 7 | 2 | -0.1 | 4269
CCOC(=O)c1ccc(N2C(=O)c3n[nH]c(C)c3C2c2ccc(OC)cc2)cc1 (stereo not given) | 6 | 6 | -11 | -6 | 23 | -0.1 | 4388
Cc1nnc2sc(SCc3ccccc3Cl)nn2c1=O | 1 | -2 | 10 | -23 | 22 | 7.6 | 4275
Fc1ccc(C(Nc2ccccn2)c2c[nH]c3ccccc23)cc1 (stereo not given) | 8 | -3 | -1 | -30 | -6 | 0.7 | 2447
CCSc1nc(O)cc(=O)n1CC | nt | nt | 0 | -16 | nt | nt | 4020
CCN(C(=O)CSc1nc2ccc(O)cc2c(=O)n1-c1ccc(OC)c(OC)c1)C1CCS(=O)(=O)C1 (stereo not given) | 12 | -1 | nt | -1 | 4 | 3.1 | ?
CCCCOc1ccc(/C(O)=C2/C(=O)C(=O)N(CCCOC)C2c2ccncc2)cc1 (stereo not given) | nt | nt | 1 | -1 | nt | nt | 2501
CN(CC(=O)Nc1cccc(F)c1)CC(=O)Nc1cccc(S(N)(=O)=O)c1 | 1 | 7 | 4 | -5 | 6 | 3.9 | 5962
CC(C)(C)NC(=O)C(c1ccco1)N(Cc1ccc(F)cc1)C(=O)c1snc(C(N)=O)c1N (stereo not given) | 3 | 2 | -2 | -21 | 9 | 3.8 | 10395
C=CCOc1c(Br)cc(/C=N/Nc2ccc(C(=O)O)cc2)cc1OCC | nt | nt | 9 | -13 | nt | nt | 2432
Cc1cc(/C=C2\Cc3ccccc3C2=O)c(C)n1-c1ccccc1 | 7 | 3 | 6 | 44 | 9 | 4.5 | 3023
CCN1C(=O)NC(=O)/C(=C\c2cn(CC(=O)N3CCCCC3)c3ccccc23)C1=O | 6 | 14 | 3 | 11 | 6 | -0.6 | 5727

Additional records follow:
SMILES | Mtb hypoxia inh | Mtb hypoxia inh growth | BJeLR viability | PrP UTR inh | Sa ugtP lethal | Sa RN4220 lethal | Bead autofluor
Cc1ccc(OCC(=O)Nc2c[nH]c(=O)[nH]c2=O)cc1C | 0 | -1 | 4 | -13 | 3 | 4.6 | 3391
COc1cc(Cl)c(C)cc1NC(=O)c1ccccc1NC(=O)CN1CCOCC1 | 4 | 6 | 0 | -24 | 1 | 3.6 | 5531
CCC(=O)Nc1ccc(C(=O)c2ccccc2)cc1 | 4 | 3 | 6 | -45 | 3 | 1.7 | 2518
Nc1ccc2c(c1)COC2=O | 2 | -4 | 0 | -32 | 0 | 0.3 | 4456
Cc1cccc(C)c1NC(=O)NN(C(=O)c1ccccc1)C(C)(C)C | 4 | 11 | 2 | -23 | 7 | 2.4 | 9387
CC1=CC(=C2C(=O)c3ccccc3C2=O)C=C(C)N1Cc1ccco1 | nt | nt | 5 | -69 | -3 | 4.1 | 2696
C=CCNC(=O)/C(C#N)=C/c1cn(-c2ccccc2)nc1-c1cccs1 | nt | nt | 3 | -28 | nt | nt | 2068
Clc1ccc(C2=CC(c3ccco3)n3ncnc3N2)cc1 (stereo not given) | 2 | 4 | 11 | 2 | -12 | 2.3 | 3347
CSCCC(NC(=O)c1ccccc1Br)C(=O)NNC(=O)c1csc(N2CCOCC2)n1 (stereo not given) | 0 | 0 | -3 | -9 | 0 | -2.2 | ?
CN(C)S(=O)(=O)c1ccc(Cl)c(C(=O)NNC(=O)c2ccc3c(c2)OCO3)c1 | 4 | 11 | nt | 5 | -2 | 8.5 | 8456
Cc1nn(-c2ccccc2Cl)c(Cl)c1/C=N/Nc1nc2ccccc2s1 | nt | nt | 13 | 87* | nt | nt | 2188
O=C(COc1ccccc1)NCC(c1ccco1)N1CCN(c2ccccc2F)CC1 (stereo not given) | 5 | 8 | -4 | -7 | 12 | -1.7 | ?
Cn1c(SCc2ccccc2F)nc2ccccc2c1=O | 3 | 17 | -4 | -12 | 8 | 6.3 | 3783
O=C(Nc1ccc(S(=O)(=O)N2CCOCC2)cc1)c1ccc(S(=O)(=O)N2CCOCC2)cc1 | -6 | -1 | -1 | 2 | 7 | 0.2 | 3003

One compound at a time, from the list above:
`CCC(=O)Nc1ccc(C(=O)c2ccccc2)cc1` as listed: Mtb hypoxia inh: 4; Mtb hypoxia inh growth: 3; BJeLR viability: 6; PrP UTR inh: -45; Sa ugtP lethal: 3; Sa RN4220 lethal: 1.7; Bead autofluor: 2518
`Clc1ccc(C2=CC(c3ccco3)n3ncnc3N2)cc1` (stereo not given) as listed: Mtb hypoxia inh: 2; Mtb hypoxia inh growth: 4; BJeLR viability: 11; PrP UTR inh: 2; Sa ugtP lethal: -12; Sa RN4220 lethal: 2.3; Bead autofluor: 3347
`C=CCNC(=O)/C(C#N)=C/c1cn(-c2ccccc2)nc1-c1cccs1` as listed: Mtb hypoxia inh: nt; Mtb hypoxia inh growth: nt; BJeLR viability: 3; PrP UTR inh: -28; Sa ugtP lethal: nt; Sa RN4220 lethal: nt; Bead autofluor: 2068
